Screening data as filed in PubChem.
NPYLR7 ag = mosquito NPYLR7 agonism; HEK293T NPYLR7/Galpha15, GCaMP6s calcium fluorescence; activation, % at 10 µM; actives 0.15% (n = 270,000); in the data active means activation above about 40%;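 further: 0% = vehicle and 100% = reference agonist at the receptor; some compounds past the cut are filed as inactive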
NPYLR7 ag max-min = recorded beside NPYLR7 ag, whose call it bears; activation, %; measured here: Max-Min RFU normalised activation; some inactives read as strong as hits;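 span of the calcium signal over five minutes; 0% = vehicle and 100% = native peptide agonist; compound fluorescence can raise it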
Active calls of the source: *; & = joins results of further samples. These rows are one share of the data (hit frequency here may not be typical).

The opening two records, ahead of the listing:
SMILES	NPYLR7 ag	NPYLR7 ag max-min
CC1CN(c2cc(Cl)nc(SCC(=O)NCCN3CCCCC3)n2)CCN1C(=O)NC1CCCCC1 (stereo not given)	17.1	22.5
COc1ccc(Cl)cc1-c1ccccc1CN1CCNCC1	24.2	21.7

The list itself (from the top)
SMILES	NPYLR7 ag	NPYLR7 ag max-min
CC1CN(c2cc(Cl)nc(SCC(=O)NCCN3CCCCC3)n2)CCN1C(=O)NC1CCCCC1 (stereo not given)	17.1	22.5
COc1ccc(Cl)cc1-c1ccccc1CN1CCNCC1	24.2	21.7
Cc1ccccc1SCC(=O)NC(C)c1cnn(C)c1 (stereo not given)	5.8	4.2
Cc1c(C(=O)N/N=C\c2coc3ccccc3c2=O)nnn1-c1nonc1N	11.6	10.7
COc1ccc(N2CCN(C(CNC(=O)C(=O)Nc3ccon3)c3ccco3)CC2)cc1 (stereo not given)	5.6	0.1
CC(C)c1noc(CNc2ccc(OC(F)F)cc2OC(F)F)n1	-1.4	11.9
CC(C)N1CCN(S(=O)(=O)Cc2ccc(Cl)nc2)CC1	1.5	-2.0
S=c1[nH]nc(COc2ccccc2)n1CC1CCCO1 (stereo not given)	-0.7	-5.9
CC(C)(O)c1ccc(CN(Cc2ccco2)CC2CCCO2)o1 (stereo not given)	-1.0	6.5
COc1cc(C(=O)Oc2cccc3ccc(C)nc23)ccc1OCc1ccc(Cl)cc1	-2.6	-5.6
COC1(C)CC(NC(C(N)=O)c2ccc(F)cc2)C1(C)C (stereo not given)	1.0	-2.1
COc1cc(C=CC(=O)N2CCCC2c2nc3ccccc3s2)cc(OC)c1OC (stereo not given)	-0.6	8.0
CCNC(=O)CN1C(=O)NC(C)(c2ccc(OC)cc2)C1=O (stereo not given)	-4.0	-5.8
CC(C)N(CCC(=O)c1ccc2ccccc2c1)Cc1ccccc1	4.1	-39.5
CCc1ccccc1N1CCN(C(=O)Cc2ccccc2)C(C)C1=O (stereo not given)	8.9	17.2
COCC1CCCN(C(=O)c2ccc(-c3ccncc3)nc2)C1 (stereo not given)	-4.5	-5.6
CCCCCn1cc(C2CCN(C(=O)COCCOC)CC2)c2ccccc21	3.6	-3.5
COc1ccccc1CCn1cnc(-c2ccccc2)c1C1CCOCC1	-3.6	-5.8
CCNC(=S)N1CCC(C(NC(=O)c2cccc(OC)c2)C(=O)N2CCCC2)CC1 (stereo not given)	4.4	8.8
CC(C)N1CCNC(=O)C1CC(=O)NCc1cc2ccc(F)cc2[nH]c1=O (stereo not given)	24.8	5.9
COc1cc2c(cc1OC)CN(c1cc(C(=O)NCCC3=CCCCC3)c3ccccc3n1)CC2	3.5	-0.2
CN(C(=O)[C@H](Cc1ccccc1)NC(=O)c1ccon1)c1ccccc1	0.8	-0.5
CC(=O)C1CC(C(=O)Nc2ccnc3ccncc23)=NN1c1ccccc1 (stereo not given)	4.9	3.4
c1csc(-c2nc3cnccn3c2NC2CCCC2)c1	5.4	2.3
Cc1oc(-n2cccc2)c(C#N)c1C(=O)NC1CCC(C)CC1 (stereo not given)	-2.4	-4.1
Cc1cc(C)c2c(=O)[nH]c(SCC(=O)N3CCOCC3)nc2n1	16.4	13.8
CC(C)(O)C#Cc1ccc(CN2CCC(CO)(Cc3ccc(Cl)cc3)CC2)cc1	2.3	-1.0
CC(C)=CCC/C(C)=C/CC(C)(C)CNCCN1CCNCC1	8.4	2.3
COC(=O)c1ccc(NC(=O)Cn2cc(-c3nnc(C)o3)c3ccccc32)cc1	3.0	8.7
CC1CC(=NN=c2sc3ccccc3n2C)CC(C)(C)C1 (stereo not given)	1.4	-1.9

Entries of single compounds from above. Values in the order: NPYLR7 ag	NPYLR7 ag max-min
Profile of `CCNC(=S)N1CCC(C(NC(=O)c2cccc(OC)c2)C(=O)N2CCCC2)CC1` (stereo not given) → 4.4	8.8
Profile of `CC(C)N1CCNC(=O)C1CC(=O)NCc1cc2ccc(F)cc2[nH]c1=O` (stereo not given) → 24.8	5.9
Profile of `COc1ccccc1CCn1cnc(-c2ccccc2)c1C1CCOCC1` → -3.6	-5.8
Profile of `CC(=O)C1CC(C(=O)Nc2ccnc3ccncc23)=NN1c1ccccc1` (stereo not given) → 4.9	3.4

Later entries:
SMILES	NPYLR7 ag	NPYLR7 ag max-min
CCC(C)(CO)NCc1ccc(OC(C)C)c(OC)c1 (stereo not given)	7.9	6.6
COc1cccc(/C=N\NC(=O)CSc2nc3ccccc3s2)c1	17.1	18.0
CCN(C)C(=O)C(C1CCCC1)N1CCN(C(=S)Nc2ccc(F)cc2)CC1 (stereo not given)	7.7	12.6
CN(CCNC(=O)c1ccc2c(c1)CCO2)S(C)(=O)=O	3.3	3.3
Cc1ccc(SC(C)C(=O)N(C)C)cc1 (stereo not given)	0.4	0.2
c1cc(CNCc2ccc3[nH]c4c(c3c2)CCCCCC4)ccn1	4.2	1.2
c1ccc(-c2cc3cnsc3o2)cc1	7.0	4.1
CCOc1cc(Cl)ccc1NC(=O)Nc1cccnc1	-3.9	-4.1
CCCn1ncc(C(=O)NCc2cn3nc(C)sc3n2)c1C	21.1	10.2
N#Cc1cccc(C(=O)NC2CCCc3occc32)c1 (stereo not given)	0.5	-0.7
COc1ccc(CC2CCN(S(=O)(=O)c3cc(Cl)cc(Cl)c3)CC2)cc1	4.5	-1.9
O=C(CSc1ccc2nnc(-c3cccs3)n2n1)Nc1nc2ccccc2s1	-3.3	-3.4
CC(=O)NCc1ccc(S(=O)(=O)N2CCCc3ccccc32)s1	8.4	2.0
C=c1ccccc1=C1NN=C(SCC(=O)NC2CCCCC2)O1	13.6	4.1
FC1(Br)C2C3C4C=CC(C3C3(CC3)C21)C41CC1 (stereo not given)	-1.5	-3.2
O=C(NCc1[nH]ncc1Br)c1nc(Cl)ccc1Cl	3.0	14.3
COc1ccc(/C=C2\SC(=Nc3ccc(O)cc3)N(c3ccc(O)cc3)C2=O)cc1	-6.8	-10.9
O=C1C(=Cc2ccc(Br)s2)CCc2ccccc21	8.4	7.6
O=C(O)CCCc1ccccc1	-5.7&-5.4&-13.1&4.3	-3.9&-10.5&6.0&-0.7
CC(C)c1cncnc1-c1cccc(C(=O)O)c1	-2.2	-4.3
C=CC[C@@H]1CC=C[C@@H](C)N1C(=O)c1ccc(Cn2ccnc2)o1	24.7	14.9
COCCC(=O)Nc1ccccc1-n1cc(Br)cn1	8.4	4.9
COc1ccc(S(=O)(=O)NCCC(=O)NC(C)c2cccc(Cl)c2)cc1 (stereo not given)	5.5	4.8
COC(=O)c1cc(Cl)c(NC(=O)N2CCCC2c2ccsc2)cc1OC (stereo not given)	2.5	-0.1
O=C(O)CSc1cc(F)ccc1F	-8.2	-12.2
COc1cc(-c2cncc(C(=O)O)c2)cc(OC)c1OC	1.2	-1.1
Cc1nc2n(n1)C(=O)C(C(c1ccc(Br)cc1)N1CCC3(CC1)OCCO3)S2 (stereo not given)	1.7	0.2
O=C(O)c1cc(-c2cccs2)[nH]n1	1.0	-1.1
COc1cc2c(cc1NC(=O)c1ccc(Br)o1)oc1ccccc12	8.5	12.1
c1ccc(CCc2nc(CCn3nnc4ccccc43)n[nH]2)cc1	1.9	0.7
NC(=O)c1c(Br)cc(Br)c(O)c1Br	-7.7	-8.1
CCC(C)(C)NC(=O)c1ccoc1	5.9	4.9
COC(=O)COC1C[C@](OCc2ccccc2C#N)(C(=O)NCC(C)C)C[C@H]2OC(C)(C)O[C@@H]12 (stereo not given in full)	16.2	24.7
CC(CN(C)c1nccc(C2CCCC2)n1)N1CCOCC1 (stereo not given)	-4.5	-6.2
CCNC(=O)Cn1c(CO)cnc1SCc1cccc(Cl)c1	5.3	3.0
Cc1ccsc1[C@@H]1CCN(C(=O)CCc2nc3ccccc3s2)C[C@H]1O	10.9	6.7
N#Cc1ccc(CN(CC(=O)NC2(C#N)CCCCCC2)CC(F)(F)F)cc1	-9.2	-9.9
CC1CN(c2ccc(Cn3c(=O)[nH]c4ccccc4c3=O)cn2)CC(C)O1 (stereo not given)	-1.5	-2.8
CCn1c(C)cc(O)c(C(c2cccnc2)N2CCC(C)CC2)c1=O (stereo not given)	11.4	4.7
COc1ccc(NC(=O)N(Cc2ccncc2)C2CC2)cc1Cl	5.2	1.2
CC(C)c1ccc(C2NC(=O)CCC2[N+](=O)[O-])cc1 (stereo not given)	-11.4	-15.8
O=C1C=CC(=O)N1c1ccc(SC(F)(F)C(F)(F)C(F)(F)F)cc1	6.3	3.5
CCN(CC)C(=O)[C@@H]1C[C@H](N)CN1S(=O)(=O)Cc1cccc(C)c1	2.9	1.6
CCOC(=O)c1[nH]nc(C(=O)c2ccccc2)c1-c1ccccc1Cl	5.2	5.3
Cn1c(NC(=O)COc2ccccc2)cc(=O)n(C)c1=O	20.5	25.4
C=CCNc1ncnc2c1sc1nc(CC)c3c(c12)CC(C)(C)OC3	4.1	3.8
Cc1ccccc1C1c2ccsc2CCN1C(=O)CN(C(=O)CSc1ccccc1)C1CCCCC1 (stereo not given)	14.1	19.3
COCC(=O)Nc1ccc2c(c1C)NC(=O)CC2c1cccc(Cl)c1Cl (stereo not given)	-0.2	-1.6
Cc1ccc(-n2nnnc2CNC(=O)c2ccc(S(=O)(=O)N3CCCCC3)cc2)cc1C	2.9	1.2
CC1CC2(C)CC(C(=O)O2)C1C(=O)O (stereo not given)	-0.2	-4.8
Cc1ccc(-n2c(-c3ccc(F)cc3)cc(C(=O)N3CCN(C(c4ccccc4)c4ccccc4)CC3)c2C)cc1	-3.1	6.0
CCn1nccc1NC(=O)C1(c2ccc(Cl)cc2)CCC1	5.7	4.4
CC(=O)OCC(=O)[C@@]1(O)[C@H](C)C[C@H]2[C@@H]3CCC4=CC(=O)C=C[C@]4(C)[C@@]3(F)[C@@H](O)C[C@@]21C	4.8	4.0
CN(C)S(=O)(=O)c1cccc(NS(=O)(=O)c2ccccc2)c1	10.8	9.1
Oc1c(Cl)cc(Cl)cc1/C=N\Nc1nc(-c2ccccc2)cc(-c2ccc(Cl)cc2)n1	-3.7	-9.1
CCCn1ncnc1C(C)NC(=O)C1(Nc2ccc(C)cc2)CCCC1 (stereo not given)	17.0	11.8
Cc1cccc(COn2cccc(C(=O)Nc3ccc([N+](=O)[O-])cc3)c2=O)c1	5.2	6.0
CN=c1scc(-c2ccc(Cl)cc2Cl)n1N=Cc1cc(OC)c(OC)cc1OC	2.3	3.0
CCCN(Cc1c(CC)nn(-c2ccc(F)cc2)c1N1CCN(C(C)C)CC1)C(=O)Nc1cccc(Cl)c1	-11.3	4.3
CC(C)c1ccc(CN(C(=O)C2CCN(C3CCS(=O)(=O)C3)CC2)C2CC2)cc1 (stereo not given)	3.9	0.6

4 compounds out of the list, arranged by molecular weight, highest first:
SMILES	NPYLR7 ag	NPYLR7 ag max-min
Cc1ccc(-n2c(-c3ccc(F)cc3)cc(C(=O)N3CCN(C(c4ccccc4)c4ccccc4)CC3)c2C)cc1	-3.1	6.0
CC(=O)OCC(=O)[C@@]1(O)[C@H](C)C[C@H]2[C@@H]3CCC4=CC(=O)C=C[C@]4(C)[C@@]3(F)[C@@H](O)C[C@@]21C	4.8	4.0
COCC(=O)Nc1ccc2c(c1C)NC(=O)CC2c1cccc(Cl)c1Cl (stereo not given)	-0.2	-1.6
CCn1nccc1NC(=O)C1(c2ccc(Cl)cc2)CCC1	5.7	4.4

Carrying on:
SMILES	NPYLR7 ag	NPYLR7 ag max-min
C#CCOc1ccccc1CNCc1ccc(N2CCN(C)CC2)nc1	-1.1	-2.0
COc1cc(C(=O)Nc2nc3c(s2)CCCC3)ccc1OCC(=O)N1CCOCC1	3.5	4.3
O=C(NCC(c1ccccc1)c1ccccc1)c1cccnc1Oc1cccc([N+](=O)[O-])c1	-7.3	-11.8
Cc1cc2cc(CNc3ncnc4c3nnn4C)ccc2[nH]1	1.8	1.6
CCC#CCN1Cc2cc(OC)ccc2N(CC(O)COCc2ccco2)CCC1=O (stereo not given)	0.7	14.4
O=C(Nc1ccnn1Cc1cccc(Cl)c1Cl)c1cccs1	9.2	3.8
CCn1c(C2CCCN(C(=O)CCn3cc(Cl)cn3)C2)nn(C)c1=O (stereo not given)	-6.9	-7.6
Cc1ccc(NC(=O)CNc2nccc(-c3ccc(C)nc3C)n2)c(F)c1	-1.4	-0.8
CC(=O)NCCC1=CCCN(CC(=O)Nc2ccc(C)cn2)C1	7.9	-0.8
O=C(C1CC1)N(Cc1ccc2c(c1)OCO2)Cc1c(-c2ccccc2)noc1N1CCCCC1	9.7	10.6
O=C(Cn1c(=O)oc2ccccc21)NC1CCSc2ccc(Cl)cc21 (stereo not given)	-1.7	-2.2
CC(C)CC1(C(=O)NS(=O)(=O)c2cccnc2)CCC1	4.3	0.9
Cc1nccc(NCc2cccnc2N(C)Cc2ccccc2)n1	0.8	-0.2
Cc1cc([N+](=O)[O-])cc2c(N=NC(=O)COc3ccc(Cl)cc3Cl)c(O)[nH]c12	-1.5	-8.7
O=c1[nH]c(CN2CCOCC2)nc2scc(-c3ccc(Cl)cc3)c12	-3.1	-3.2
COCCn1c(C(=O)Nc2ccc(C)c(F)c2)cc2c(=O)n(C)c(=O)n(C)c21	-1.2	-1.8
CCc1ccccc1OCC(=O)N1CCCN(C(N)=O)CC1	2.4	0.2
O=C(Nc1ccc(Cl)cc1)N1CCCN(c2nc(Cc3ccccc3)nc3onc(-c4ccccc4)c23)CC1	28.5	17.5
O=c1c2nnc3c(-c4ccccc4)cnn3c2ccn1CCc1cnc[nH]1	28.5	16.2
CCOC(=O)c1c(C)[nH]c(C(=O)OCc2cc(=O)n3cc(Br)ccc3n2)c1C	0.1	-2.8
O=C(C1CCC1)N(Cc1ccco1)Cc1ccccc1OS(=O)(=O)c1ccc(F)cc1	-3.9	0.9
C#CCN1CCN(C(=O)c2cc(NC(=O)C(C)C)ccc2Cl)CC1	0.9	0.2
CC(C)c1cccc(C(C)C)c1NC(=O)NCC1CCN(c2nc(Cc3ccc(F)cc3)ns2)CC1	0.8	-7.0
COC(=O)c1cc2n(n1)CCCN(C(=O)c1ccc(C)c(N3CCNC3=O)c1)C2	17.8	8.6
CCOCCn1ccc2c(NC(=O)CCCC(=O)OC)c(OC(=O)N(CC)CC)ccc21	3.3	-1.7
